Screening results: PubChem, National Center for Advancing Translational Sciences (NCATS)
Cruzain Triton: qHTS Assay for Promiscuous and Specific Inhibitors of Cruzain (with detergent). Cruzipain (Trypanosoma cruzi), P25779. purified cruzain, Z-FR-AMC fluorescence, 0.01% Triton. Potency, µM, for the others: max response, negative = inhibition, actives largely listed as inhibitors. hit rate 0.43% among 200,000;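 also: plate controls were neutral wells for no effect and buffer without enzyme for full effect; nearly all actives have a fitted effect of over 40% in size; top concentration of the series not given in the record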
Target sequence (P25779 123-467 limits assumed): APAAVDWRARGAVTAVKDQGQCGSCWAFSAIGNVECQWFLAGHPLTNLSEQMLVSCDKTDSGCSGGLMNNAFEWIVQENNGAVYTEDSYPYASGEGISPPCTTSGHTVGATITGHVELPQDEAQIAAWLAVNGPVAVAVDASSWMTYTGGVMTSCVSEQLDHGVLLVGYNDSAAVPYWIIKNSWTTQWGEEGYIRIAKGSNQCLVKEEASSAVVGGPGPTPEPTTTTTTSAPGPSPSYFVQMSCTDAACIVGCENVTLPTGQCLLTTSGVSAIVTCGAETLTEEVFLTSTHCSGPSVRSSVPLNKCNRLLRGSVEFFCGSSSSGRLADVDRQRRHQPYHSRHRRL
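Read-out: AMC fluorescence (360 nm excitation, 450 nm emission), four reads over 2 min, first-to-third difference used. Conditions: cruzain 1.5 nM, Z-FR-AMC 2 uM, pH 5.5 acetate, 5 mM DTT, 0.01% Triton X-100.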
SARS PLpro yeast: qHTS of Yeast-based Assay for SARS-CoV PLP; Potency, µM (titrated, usually from 32.9 µM), for inactives: at the top dose activity, positive = growth rescue; hit rate 0.19% among 330,000; S. cerevisiae expressing SARS-CoV PLpro, growth rescue; control for the full effect not named in the record; active means well fitted rising curve with a large enough effect; inconclusive means small, poorly fitted or top-dose-only effect; inactive means no such curve, though single readings can be large or run the other way; also: 0% is about no effect; nearly all actives have a fitted effect of over 55% in size; growth read by luminescence after 48 h
Cruzain noTriton: qHTS Assay for Promiscuous and Specific Inhibitors of Cruzain (without detergent) | Potency, µM, without a hit: max response, negative = inhibition, actives largely listed as inhibitors | hit rate 2.3% among 200,000 | Cruzipain (Trypanosoma cruzi), P25779 | purified cruzain, Z-FR-AMC fluorescence, no detergent;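 also: plate controls were enzyme without inhibitor for no effect and buffer without enzyme for full effect; nearly all actives have a fitted effect of over 40% in size; top concentration of the series not given in the record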
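Detergent-free condition (0.00005% Triton X-100) in acetate buffer pH 5.5 with DTT. 1.5 nM enzyme and compound were pre-mixed 15 min, then 2 uM Z-FR-AMC substrate added; reaction progress from fluorescence change between first and third reads (60 s).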
NS1 function inh: qHTS Assay for Inhibitors of Influenza NS1 Protein Function; S. cerevisiae slowed by influenza A NS1, growth recovery by OD600; Potency, µM (doses to about 46.1 µM), for inactives: at the highest dose activity, positive = more growth; hit rate 0.4% among 270,000; AID 2326, 2010; active means well fitted rising curve with a large enough effect; inconclusive means small, poorly fitted or top-dose-only effect; inactive means no such curve, though single readings can be large or run the other way; also: nearly all actives have a fitted effect of over 50% in size
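Recovery from NS1-induced slow growth read by OD600 in budding yeast switched to galactose assay medium (pH 6.0, -URA) at 1:100 dilution. Compound 23 nl per well; the matching strain lacking NS1 serves as control.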
RE007 growth inh: qHTS Assay for Inhibitors of the HIV-1 protein Vpr; Potency, µM (series often up to 92.2 µM), for the others: at the highest dose activity change, negative = less growth; S. pombe RE007 Vpr strain, BacTiter-Glo ATP luminescence, 24 h; control for the full effect not named in the record; hit rate 0.21% among 360,000; active = well fitted falling curve with a large enough effect; inconclusive = small, poorly fitted or top-dose-only effect; inactive = no such curve, though single readings can be large or run the other way;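 also: % is scaled to controls: 0 for no effect and ±100 for the full control effect; nearly all actives have a fitted effect of over 50% in size; the assay follows cell death caused by Vpr and the record does not say whether a fall means rescue or toxicity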
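Fission yeast strain RE007, carrying one chromosomally integrated HIV-1 vpr copy, was seeded at OD 0.01 in PMG+AL medium with 23 nL pinned compound. After 24 h at 30 °C and 99% humidity, viability was read by BacTiter-Glo luminescence.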
MARV entry inh: qHTS for inhibitors of binding or entry into cells for Marburg Virus; Marburg virus pseudotyped entry inhibition, cell reporter; control for the full effect not named in the record; about a third of the inactives were read at about 46 µM; Potency, µM (titrated, usually from 37.8 µM), without a hit: at the top dose activity change, negative = inhibition, actives largely listed as inhibitors; hit rate 1.8% among 300,000; AID 540276, 2011; active = well fitted inhibition curve with a large enough effect; inconclusive = small, poorly fitted or top-dose-only effect, or effect the other way; inactive = flat fitted curve, though single readings scatter; tested in HEK293 cells; about a fifth of its hits are not listed in these tables; also: % is scaled to controls: 0 for no effect and ±100 for the full control effect; luciferase read-out
StopGo reporter: High Throughput Screening for Foot and Mouth Disease Virus Antivirals. human cells with a luciferase reporter of 2A StopGo recoding; control for the full effect not named in the record. Potency, µM (series often up to 57.9 µM), for inactives: top-dose signal change, negative = less light. hit rate 1.2% among 410,000. AID 1159524, 2015; active = well fitted falling curve with a large enough effect; inconclusive = small, poorly fitted or top-dose-only effect; inactive = no such curve, though single readings can be large or run the other way; tested in HEK293T cells; also: % is scaled to controls: 0 for no effect and ±100 for the full control effect; nearly all actives have a fitted effect of over 45% in size; luciferase light after 4 h
LASV entry inh: qHTS for Inhibitors of binding or entry into cells for Lassa Virus; AID 540256, 2011; Potency, µM (titrated, usually from 37.9 µM), without a hit: at the highest dose activity change, negative = inhibition, most hits filed as inhibitors; hit rate 1.2% among 300,000; Lassa virus pseudotype entry inhibition, cell reporter; control for the full effect not named in the record; active means well fitted inhibition curve with a large enough effect; inconclusive means small, poorly fitted or top-dose-only effect, or effect the other way; inactive means flat fitted curve, though single readings scatter; tested in HEK293 cells; also: % is scaled to controls: 0 for no effect and ±100 for the full control effect; nearly all actives have a fitted effect of over 50% in size; luciferase read-out
Numbers without * were called inactive; [ ] = remark or other dose. Unless noted, calls follow the shape of the dose curve; as a rule, active = well fitted curve in the direction sought with a large enough effect; inconclusive = small, poorly fitted or top-dose-only effect, or another doubt; inactive = no such curve, though single readings can be large; an effect the other way counts as inactive or inconclusive. Potency is read from the fitted curve at half-maximal effect.

What do the screens show for `Fc1ccc(C(c2nnnn2C2CCCC2)N(Cc2ccco2)CC2CCCO2)cc1` (stereo not given)?
Cruzain Triton: -1.3%; SARS PLpro yeast: -17.6%; Cruzain noTriton: 9.4%; NS1 function inh: inconclusive; RE007 growth inh: -18.7%; MARV entry inh: inconclusive; StopGo reporter: 7.8%; LASV entry inh: inconclusive

Results for Cc1cccc2cc(CN(Cc3ccc(F)cc3)C(=O)C(F)(F)F)c3nnnn3c12 ?
Cruzain Triton: -5.8%; SARS PLpro yeast: 4.7%; Cruzain noTriton: 2.5%; NS1 function inh: -0.6%; RE007 growth inh: 21.0%; MARV entry inh: 8.3%; StopGo reporter: 0.0%; LASV entry inh: -13.3%

Results for COCCn1c(C)cc(C(=O)COC(=O)c2ccc(NC(=O)CC#N)cc2)c1C ?
Cruzain Triton: -7.4%; SARS PLpro yeast: -8.0%; Cruzain noTriton: 18.5%; NS1 function inh: 1.0%; RE007 growth inh: 14.0%; MARV entry inh: inconclusive; StopGo reporter: 12.9%; LASV entry inh: -24.9%

How did CC(=O)c1ccc(N2CCN(C(=O)NCc3noc4ccc(C)cc34)CC2)cc1 do in these assays?
Cruzain Triton: -2.2%; Cruzain noTriton: 9.0%; StopGo reporter: -10.6%; LASV entry inh: -18.2%[46.1 µM]

How did Cn1c(N)nc2nc[nH]c2c1=S do in these assays?
RE007 growth inh: -14.3%; MARV entry inh: 0.5%; StopGo reporter: -7.5%; LASV entry inh: -12.1%

What do the screens show for `COc1ccc(Cc2nn3c(Cn4nnc5ccccc54)nnc3s2)cc1`?
Cruzain Triton: 0.9%; SARS PLpro yeast: -0.7%; Cruzain noTriton: -8.4%; NS1 function inh: -124.1%; RE007 growth inh: 0.7%; MARV entry inh: -4.8%; StopGo reporter: -21.2%; LASV entry inh: -14.5%

Results for Nc1cccc2c1Cc1cc([N+](=O)[O-])ccc1-2 ?
RE007 growth inh: -11.1%; MARV entry inh: 3.7%; StopGo reporter: 54.9%[activator]; LASV entry inh: 24.9%

What do the screens show for `CCN(CC)C(=O)CC(c1ccc(N(C)C)cc1)c1c(O)cc(OC)cc1OC` (stereo not given)?
SARS PLpro yeast: 0.3%; NS1 function inh: -21.0%; RE007 growth inh: -9.1%; StopGo reporter: -14.3%

How did Cc1cccc(C(=O)N2CCN(CCNC(=O)C(=O)Nc3ccc(F)cc3)CC2)c1 do in these assays?
SARS PLpro yeast: -1.0%; NS1 function inh: 0.4%; RE007 growth inh: 0.7%; MARV entry inh: -9.2%[46.1 µM]; StopGo reporter: -7.5%; LASV entry inh: -6.9%

How did O=C(Nc1ccccc1Cl)[C@H](CSCc1ccccc1)N1Cc2ccccc2C1=O do in these assays?
Cruzain Triton: -1.1%; Cruzain noTriton: -1.6%; MARV entry inh: -17.3%[46.1 µM]; StopGo reporter: -0.5%; LASV entry inh: -17.2%[46.1 µM]

What do the screens show for `COc1cc(C)ccc1S(=O)(=O)N1CCN(C23CC4CC(CC(C4)C2)C3)CC1`?
Cruzain Triton: -1.9%; SARS PLpro yeast: -1.8%; Cruzain noTriton: -2.7%; NS1 function inh: -4.4%; RE007 growth inh: 3.2%; MARV entry inh: inconclusive; StopGo reporter: -6.8%; LASV entry inh: inconclusive

Results for COc1cccc(NC(=O)CCS(=O)(=O)c2cccs2)c1 ?
Cruzain Triton: 1.9%; SARS PLpro yeast: -2.0%; Cruzain noTriton: -13.4%; NS1 function inh: 1.2%; RE007 growth inh: -1.7%; MARV entry inh: inconclusive; StopGo reporter: 18.6%; LASV entry inh: 25.5%

How did CCC(NC(=O)/C(=C\c1ccc2c(c1)OCO2)NC(C)=O)C(=O)O (stereo not given) do in these assays?
Cruzain Triton: -2.5%; SARS PLpro yeast: -7.7%; Cruzain noTriton: 4.2%; NS1 function inh: 0.3%; RE007 growth inh: -19.4%; MARV entry inh: 17.0%; StopGo reporter: -9.8%; LASV entry inh: 2.3%

What do the screens show for `Cc1ccc(C)c(S(=O)(=O)Nc2ccccc2C(=O)Nc2ccc(S(=O)(=O)Nc3ncccn3)cc2)c1`?
Cruzain Triton: -10.9%; SARS PLpro yeast: -8.3%; Cruzain noTriton: inconclusive; NS1 function inh: 11.2µM*; RE007 growth inh: -2.6%; MARV entry inh: 9.4%; StopGo reporter: 43.2%[activator]; LASV entry inh: 9.4%

How did CCOc1ccc(OCC)c(Nc2cc(C)nc3nc(-c4ccco4)nn23)c1 do in these assays?
Cruzain Triton: 0.7%; Cruzain noTriton: 0.7%; StopGo reporter: -9.8%; LASV entry inh: 2.1%[46.1 µM]

How did Cc1ccc(N2CC(C(=O)N3CCC(C(=O)Nc4ccc(Br)cc4)CC3)CC2=O)cc1 (stereo not given) do in these assays?
SARS PLpro yeast: -0.2%; NS1 function inh: 21.0%; RE007 growth inh: 1.1%; MARV entry inh: inconclusive; StopGo reporter: -5.4%; LASV entry inh: inconclusive

How did COCCCn1c(=N)c(C(=O)NC2CCCC2)cc2c(=O)n3cc(C)ccc3nc21 do in these assays?
Cruzain Triton: -9.5%; Cruzain noTriton: -2.8%; MARV entry inh: inconclusive; StopGo reporter: 5.2%; LASV entry inh: 9.4%[46.1 µM]

Results for CCS(=O)(=O)c1ccc2oc(SCC(=O)NCCc3ccc(F)cc3)nc2c1 ?
SARS PLpro yeast: -0.4%; NS1 function inh: -1.0%; RE007 growth inh: -5.0%; MARV entry inh: -4.6%[46.1 µM]; StopGo reporter: inconclusive; LASV entry inh: -4.9%

Results for COc1ccccc1N1CCN(CC(C)N(C(=O)C2CCCCC2)c2ccccn2)CC1 (stereo not given) ?
SARS PLpro yeast: -0.6%; NS1 function inh: -2.5%; RE007 growth inh: -7.5%; MARV entry inh: -13.8%; StopGo reporter: inconclusive; LASV entry inh: -2.4%

What do the screens show for `CCC(C)N1C(=O)CCC1C(=O)NCCc1ccc(Cl)cc1` (stereo not given)?
SARS PLpro yeast: 1.3%; NS1 function inh: 1.7%; RE007 growth inh: 16.0%; MARV entry inh: -5.2%[46.1 µM]; StopGo reporter: -1.5%; LASV entry inh: 10.3%[46.1 µM]

What do the screens show for `COc1ccc(NC(=O)COC(=O)CCCc2c[nH]c3ccccc23)cc1`?
Cruzain Triton: -3.9%; SARS PLpro yeast: -23.4%; Cruzain noTriton: -24.8%; NS1 function inh: -20.1%; RE007 growth inh: -2.6%[3.69 µM]; MARV entry inh: 4.1%; StopGo reporter: 3.8%; LASV entry inh: inconclusive

What do the screens show for `CSCCC1NC(=O)N(CC(=O)Nc2c(Cl)cc(Cl)cc2Cl)C1=O` (stereo not given)?
Cruzain Triton: 2.4%; SARS PLpro yeast: 7.0%; Cruzain noTriton: 7.0%; NS1 function inh: -0.6%; RE007 growth inh: -5.8%; MARV entry inh: -17.2%; StopGo reporter: 1.5%; LASV entry inh: -5.2%

What do the screens show for `COc1ccc(N2CCN(C(=O)c3ccc(NC(=O)c4nsc5ccccc45)cc3)CC2)cc1`?
Cruzain Triton: -0.2%; Cruzain noTriton: -27.8%; StopGo reporter: -0.9%; LASV entry inh: 11.6%[46.1 µM]

What do the screens show for `Cc1ccccc1N(CC(=O)NCCSC1CCCCC1)S(=O)(=O)c1ccccc1`?
Cruzain Triton: -7.1%; SARS PLpro yeast: -3.9%; Cruzain noTriton: 3.4%; NS1 function inh: -55.4%; RE007 growth inh: 3.0%; MARV entry inh: -22.2%; StopGo reporter: -29.8%; LASV entry inh: -1.6%

Results for O=C(Nc1ccccc1)N1CCc2ccccc21 ?
Cruzain Triton: -1.5%; SARS PLpro yeast: -23.0%; Cruzain noTriton: -6.9%; NS1 function inh: -10.0%; RE007 growth inh: -17.1%; MARV entry inh: inconclusive; StopGo reporter: 18.8%; LASV entry inh: -22.4%

What do the screens show for `COc1ccc(C2=C(C)CC(C)(C)NC2=O)cc1OC`?
Cruzain Triton: 4.5%; SARS PLpro yeast: -1.3%; Cruzain noTriton: -1.1%; NS1 function inh: -0.3%; RE007 growth inh: 14.6%; MARV entry inh: 6.6%; StopGo reporter: -19.1%; LASV entry inh: 18.8%

What do the screens show for `Cc1ccccc1OCc1n[nH]c(=S)n1-c1ccccc1`?
SARS PLpro yeast: 0.4%; NS1 function inh: 4.5%; RE007 growth inh: 6.5%; MARV entry inh: 3.0%[46.1 µM]; StopGo reporter: -8.5%; LASV entry inh: -23.8%[46.1 µM]

Results for N#CC1=C(SCC(=O)c2cc3ccccc3oc2=O)NC(=O)C(C#N)C12CCCC2 (stereo not given) ?
Cruzain Triton: -20.7%; SARS PLpro yeast: -1.6%; Cruzain noTriton: inconclusive; NS1 function inh: inconclusive; RE007 growth inh: -1.1%; MARV entry inh: -0.8%[46.1 µM]; StopGo reporter: -10.4%; LASV entry inh: 13.8%

How did CCC1CCCCN1CC(=O)c1c(C)[nH]c2cc(C)ccc12 (stereo not given) do in these assays?
SARS PLpro yeast: -2.3%; NS1 function inh: 0.6%; RE007 growth inh: -9.8%; MARV entry inh: -23.1%[46.1 µM]; StopGo reporter: -7.9%; LASV entry inh: 3.9%[46.1 µM]

Results for COc1ccc(OC(C)c2nnc(N)s2)cc1 (stereo not given) ?
SARS PLpro yeast: 1.0%; NS1 function inh: 3.4%; RE007 growth inh: -6.7%; StopGo reporter: 1.2%

Results for Cc1nnc(SCC(=O)c2cc(C)n(-c3c(C)n(C)n(-c4ccccc4)c3=O)c2C)s1 ?
Cruzain Triton: -1.1%; SARS PLpro yeast: -1.5%; Cruzain noTriton: -5.7%; NS1 function inh: -3.0%; RE007 growth inh: 7.8%; MARV entry inh: -13.6%; StopGo reporter: -13.4%; LASV entry inh: 4.4%

Results for O=C(Cn1c(NCCO)nc2ccccc21)c1ccc(Cl)cc1Cl ?
SARS PLpro yeast: -0.7%; NS1 function inh: 1.0%; RE007 growth inh: -4.2%; MARV entry inh: inconclusive; StopGo reporter: -15.9%; LASV entry inh: -18.0%

Hits appear at their usual frequency; any-hit rate near 4.8%.
